Mtb growth – Confirmatory growth inhibition assay against Mycobacterium tuberculosis H37Rv, potency (AID 1949); most inactive calls were filed without a number and no value below 0 was filed; inhibition, % at 10 µg/mL, or IC50 in µg/mL where a hit was titrated; 100,000 tested, 1.6% active;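 active = confirmed in a dose series; inconclusive = about 50% or more but not retested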;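 also: bacteria grown 7 days with compound before Alamar blue readout; 0% = untreated bacteria and 100% = reference antibiotic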
Active calls of the source: *; i = inactive; ? = inconclusive.

SMILES	Mtb growth
CCCn1nnc(NC(=S)NC(=O)c2cccc(OC)c2)n1	38.2%
COC(=O)C1=C(C)NC2=C(C(=O)CCC2)C1c1ccc(C(F)(F)F)cc1 (stereo not given)	i
CCOC(=O)c1sc(NC(=O)C(CC)Sc2nnnn2-c2ccccc2)nc1C (stereo not given)	8.2%
CN(c1ccc(C(=O)NCc2ccc(Cl)cc2Cl)cc1)S(=O)(=O)c1ccccc1	8.7%
CCCCc1c(C(=O)O)cc(OC)cc1C(=O)O	0.8%
O=C(CCc1ccccc1)Nc1cccc2c(NC(=O)CCc3ccccc3)cccc12	3.3%
CC(C)(C)NC(=O)CN(c1ccc2c3c(cccc13)CC2)S(C)(=O)=O	i
O=C(Cc1ccc(O)cc1)NNC(=O)Nc1ccc(Br)cc1Cl	i
O=C1CC(c2ccccc2)=NN1c1nc(-c2ccc(Cl)cc2)cs1	i
CC(C)(C)NC(=O)CSc1nc(-c2ccc(F)cc2)cc(-c2ccccc2)c1C#N	i
O=C(Nc1cccc2cccnc12)c1cccc(N2C(=O)CCC2=O)c1	i
CC(C)NS(=O)(=O)c1ccc(OCC(=O)Nc2ccccc2F)cc1	i
O=C(Nc1ccc(I)cc1C(=O)N1CCCCC1CCO)c1ccccc1Cl (stereo not given)	9.6%
Cc1cc(=O)oc2cc(NC(=S)N3CCN(C/C=C/c4ccccc4)CC3)ccc12	i
c1ccc(-c2ccccc2OCCN2CCCC2)cc1	i
CCC(C)NS(=O)(=O)c1ccc(Cl)s1 (stereo not given)	4.2%
O=C(NCCCNC1CCCCC1)c1ccncc1	i
Clc1ccc(OCCCCn2ccnc2)cc1Cl	2.01µg/mL*
OCCCNC(=S)Nc1ccc(Br)cc1	i
Cc1cc(CNC(=S)Nc2ccc3c(c2)OCO3)nn1C	i
O=c1oc2cc(OCc3ccc([N+](=O)[O-])cc3)ccc2c2c1CCCCC2	3.7%
O=C(Nc1ccc(F)cc1F)C1CCN(S(=O)(=O)c2cc(Cl)ccc2Cl)CC1	i
CC1=NN(C(=O)Cc2ccccc2)C(O)(c2ccccc2)C1 (stereo not given)	i
CCN1CCOC(CC(=O)Nc2cccc(OC)c2)C1=O (stereo not given)	i

The last 5 entries of the section above come first, to join the parts.
SMILES	Mtb growth
Cc1cc(CNC(=S)Nc2ccc3c(c2)OCO3)nn1C	i
O=c1oc2cc(OCc3ccc([N+](=O)[O-])cc3)ccc2c2c1CCCCC2	3.7%
O=C(Nc1ccc(F)cc1F)C1CCN(S(=O)(=O)c2cc(Cl)ccc2Cl)CC1	i
CC1=NN(C(=O)Cc2ccccc2)C(O)(c2ccccc2)C1 (stereo not given)	i
CCN1CCOC(CC(=O)Nc2cccc(OC)c2)C1=O (stereo not given)	i
Cc1ccc2nsnc2c1NC(=S)NC(=O)c1cncc(Br)c1	i
CSc1cccc(NC(=O)CSc2nnc(-c3cccc(C)c3)o2)c1	i
O=C(CSc1ccccc1)N1CCN(c2ccccc2F)CC1	i
Cc1cc(OCc2ccccc2Cl)c2c(C)c(C)c(=O)oc2c1	i
NC(=O)c1nn(-c2ccccc2)nc1N	i
O=C(Nc1ccc(N2CCN(Cc3ccccc3F)CC2)cc1)c1ccc(-c2ccccc2)cc1	2.9%
Cc1ccc(CNC(=O)c2ccccc2N(Cc2ccccc2)S(C)(=O)=O)cc1	i
O=C(c1cccc2ccccc12)N1CCN(S(=O)(=O)c2ccc3ccccc3c2)CC1	i
Cc1ccc(NC(=S)NC2CCC(NC(=S)Nc3ccc(C)c(C)c3)CC2)cc1C (stereo not given)	i
COC(=O)[C@@]1(C)CC[C@]2(C)CC[C@]3(C)C(=CC(=O)C4[C@@]5(C)CCC(O)C(C)(C)C5CC[C@]43C)C2C1 (stereo not given in full)	i
CSc1cccc(NC(=O)CSc2nnc(CSCc3ccccc3)n2C)c1	i
CCCCOc1ccccc1NC(=O)c1cc(OC)c(OC)c(OC)c1Br	17.9%
CCOC(=O)c1sc(NC(=S)n2cc(C)cn2)c(C(=O)OCC)c1C	i
CCc1cccc(C)c1NC(=O)CSc1nnc(-c2ccc(Cl)c(Cl)c2)n1N	i
Cc1ccc(CSc2nc3ccccc3c(=O)n2CC2CCCO2)cc1 (stereo not given)	11.2%
Cc1c2oc3c(c2cc2c1oc(=O)c1ccccc12)CCCC3	i
Cc1ccc(C(=O)CCC(=O)Nc2ccccc2C)cc1C	i
COc1ccc(Cl)cc1S(=O)(=O)N1CCN(S(=O)(=O)c2cc(Cl)ccc2OC)CC1	i
O=C1CCCC2=C1C(c1cccc(Cl)c1Cl)n1ncnc1N2 (stereo not given)	i
Cc1cccc(C(C)C)c1NC(=O)C1CC1	i
CCOc1ccc2nc(SCC(=O)Nc3cc(C(=O)O)cc(C(=O)O)c3)[nH]c2c1	i
Cc1cccc(C(=O)Nc2ccc(S(=O)(=O)Nc3ncccn3)cc2)c1[N+](=O)[O-]	i
Cc1ccc([N+](=O)[O-])cc1S(=O)(=O)Nc1ccc(C(=O)O)cc1	i
COc1cc(C(=O)NCc2ccco2)c(Br)c(OC)c1OC	i
Cc1sc2ncnc(-n3nnc4ccccc43)c2c1C	6.2%
COc1ccccc1NC(=O)CSc1nnc(C2CCCCC2)n1C	i
COc1ccc(NS(=O)(=O)Cc2ccccc2Cl)cc1	i
CCCn1nnc(NC(=O)c2ccc(OC)c(Br)c2)n1	i
Cc1ccnc(SC2CC(=O)N(c3ccc(Br)cc3)C2=O)n1 (stereo not given)	i
CCCCN(C)CCOCCOc1ccccc1OCC	i
COc1ccc(-n2c(SCC(N)=O)nnc2-c2cccnc2)cc1	i
CC1(c2ccccc2)OC(=O)C(C#N)C12CCCCC2 (stereo not given)	2.6%
Clc1ccccc1C1=CC(c2cccs2)n2ncnc2N1 (stereo not given)	i
Cn1c(SCC(=O)Nc2ccccc2F)nnc1-c1cccnc1	i
Cc1ccccc1NC(=O)C1CCN(C(=O)c2ccc(C(C)(C)C)cc2)CC1	i
CC(C)C(=O)Nc1cccc(NC(=O)c2ccccc2[N+](=O)[O-])c1	i
COc1ccc(N2C(=O)CC(N3CCC(=O)CC3)C2=O)cc1 (stereo not given)	i
O=C(Oc1ccccc1Cl)c1ccccc1I	i
CCOc1cc(C(=O)Nc2nc3c(s2)CCCC3)cc(OCC)c1OCC	i
COc1ccc(Cl)cc1NC(=O)CN1C(=O)C2C3C=CC(C3)C2C1=O (stereo not given)	0.7%
O=C(NCCCn1cc(Br)cn1)Nc1ccccc1C(F)(F)F	i
COc1ccccc1N1COc2ccc3ccccc3c2C1	i
Cc1cc(OCC(=O)N2CCCc3ccccc32)cc(C)c1Br	i
O=C(CCC1CCCCC1)Nc1cc(C(=O)O)cc(C(=O)O)c1	i
c1cnc(SCCCCOc2ccc3c(c2)CCC3)nc1	i
CC1(C)CC(NC(=O)C(F)(F)F)CC(C)(CNC(=O)C(F)(F)F)C1 (stereo not given)	1.6%
COc1cc(Cl)c(S(=O)(=O)N2CCN(c3ccccc3)CC2)cc1Cl	i
CN1C2=C(C(=O)CCC2)C(c2cc(Br)ccc2OCC(=O)O)C2=C1CCCC2=O	i
O=C(NCc1ccccc1Cl)c1ccc(COc2ccccc2Cl)cc1	i
O=C1c2ccc3c4c(c(Cl)cc(c24)C(=O)N1c1ccccc1)C(=O)N(c1ccccc1)C3=O	i
Cc1ccc(CC2CC(=O)N(c3nccs3)C2=O)cc1 (stereo not given)	i
CC1CN(C2CCN(C(=O)c3ccccc3)CC2)CC(C)O1 (stereo not given)	0.8%
CCc1cccc(C)c1NC(=O)CN(c1ccc(Cl)cc1)S(=O)(=O)c1ccc(C)cc1	2.1%
COc1ccc(C)cc1NC(=O)CS(=O)(=O)c1ccccc1	3.1%
Cc1cccc(NC(=O)CN(c2ccccc2Br)S(C)(=O)=O)c1C	2.0%
CCC(Oc1ccccc1)C(=O)NCCCOC (stereo not given)	i
CCCNC(=O)c1ccccc1NC(=O)CN(c1ccc(OC)c(Cl)c1)S(C)(=O)=O	i
CCn1c(COc2ccc(C(C)C)cc2)nnc1SCC(=O)Nc1ccc(Br)cc1F	0.9%
COc1ccc(OCC#CCN2CCC(C)CC2)cc1	i
CN(C)CCn1c(C(=O)Nc2ccccc2)cc2ccccc21	i

Later entries:
SMILES	Mtb growth
CCc1cccc(NC(=O)c2ccc3ccccc3n2)c1	11.4µg/mL*
Cc1cccc(-c2noc(CCC(=O)N3CCOCC3)n2)c1	2.4%
CCOc1nc(-c2ccc(C)cc2)ccc1-c1noc(-c2ccncc2)n1	i
CCOc1ccc(NC(=O)CSC2=C(C#N)C(c3ccncc3)C(C(=O)Nc3ccccc3)=C(C)N2)cc1 (stereo not given)	i
Cc1cccc(CN(CC(=O)Nc2ccc(C(N)=O)cc2)S(=O)(=O)c2ccc(Cl)cc2)c1	i
CCOc1ccc(C2NC(=S)NC(C)=C2C(=O)Nc2ccccc2F)cc1 (stereo not given)	i
COc1ccc(NC(=O)CSc2nnc(C(CC(C)C)NC(=O)c3ccccc3Cl)n2C)cc1 (stereo not given)	i
COc1ccc(C)cc1NC(=O)CN(c1cccc(C(F)(F)F)c1)S(=O)(=O)c1ccccc1	i
O=C(Oc1ccc(Cl)cc1Br)c1ccco1	i
COc1ccccc1NC(=O)Cc1ccc(C)cc1	i
O=C(Nc1cccc([N+](=O)[O-])c1)c1cn(-c2ccccc2)nc1-c1ccc(Cl)cc1	i
Cc1ccc2c(Cl)c(C(=O)Nc3ccccc3C(N)=O)sc2c1	i
O=C1c2cccc3c(N4CCOCC4)ccc(c23)C(=O)N1c1cccc2ccccc12	0.3%
O=C(O)c1ccc(CN2CCCCC2)o1	i
COC(=O)Nc1ccc(Cc2ccncc2)cc1	i
COc1ccc(C=NN2CCN(C3c4ccccc4-c4ccccc43)CC2)c(OC)c1	i
Cc1ccc(NC(=O)CN(C2CCCCC2)S(=O)(=O)c2ccc(Br)cc2)c(C)c1	1.1%
Cn1c(SCc2cccc(Br)c2)nnc1-c1ccncc1	i
Cc1ccc(OCC(=O)N2CCN(C(=O)c3cccs3)CC2)cc1	i
COCc1[nH]nc2c1C(C1C=CCCC1)C(C#N)=C(N)O2 (stereo not given)	4.4%
COc1ccc(C(=O)NCC2(c3ccccc3)CCOCC2)cc1OC	i
CC1CCN(S(=O)(=O)c2ccc(NC(=O)Cc3ccccc3[N+](=O)[O-])cc2)CC1	i
CCn1c(=O)[nH]c2cc(C(=O)Nc3ccc(Cl)c(Cl)c3)ccc2c1=O	i
COc1cc(Cl)c(S(=O)(=O)n2cnc(C)c2)cc1Cl	0.6%

Retrieved by structure from above, two records:
SMILES	Mtb growth
COc1ccc(C(=O)NCC2(c3ccccc3)CCOCC2)cc1OC	i
Cn1c(SCc2cccc(Br)c2)nnc1-c1ccncc1	i

(more compounds)
SMILES	Mtb growth
O=C(Cc1ccc(O)cc1)NNC(=O)Nc1ccc(F)cc1F	i
CCOc1ccc(N(CC(=O)Nc2c(C)cc(C)cc2C)S(=O)(=O)c2ccc(OC)c(OC)c2)cc1	i
COc1ccc(Cc2nnc(SCC(=O)NCc3ccco3)o2)cc1	?
COc1ccc(Br)cc1/C=C(\C#N)c1nc2ccccc2c(=O)[nH]1	i
COc1cc(NC(=O)c2cc(-c3ccccc3)on2)c(OC)cc1Cl	i
O=C(CN1CCN(c2ccc([N+](=O)[O-])cc2)CC1)Nc1ccccn1	3.9%
NC(=O)c1c(NC(=O)C2CC(=O)N(c3ccc(Cl)cc3)C2)sc2c1CCCC2 (stereo not given)	?
COc1ccc(CN(C2=NS(=O)(=O)c3ccccc32)c2ccc(O)cc2)cc1	i
COc1cccc2cc(C(=O)Nc3ccccc3-c3ccccc3)c(=O)oc12	i
CN(CC(=O)Nc1ccc2c(c1)OCO2)S(=O)(=O)c1ccc(Br)cc1	i
Cc1ccc(OCC(=O)Nc2cccc(Cl)c2C)c(C)c1	i
O=C(O)CSc1nnc(-c2ccc3c(c2)OCO3)n1-c1ccccc1	i

The closing 5 entries of the part before lead into the next.
SMILES	Mtb growth
COc1ccc(CN(C2=NS(=O)(=O)c3ccccc32)c2ccc(O)cc2)cc1	i
COc1cccc2cc(C(=O)Nc3ccccc3-c3ccccc3)c(=O)oc12	i
CN(CC(=O)Nc1ccc2c(c1)OCO2)S(=O)(=O)c1ccc(Br)cc1	i
Cc1ccc(OCC(=O)Nc2cccc(Cl)c2C)c(C)c1	i
O=C(O)CSc1nnc(-c2ccc3c(c2)OCO3)n1-c1ccccc1	i
CC(Oc1cc2oc(=O)c3c(c2cc1Cl)CCCC3)c1ccccc1 (stereo not given)	i
Cc1sc(NC(=O)c2ccc(Cl)s2)c(C#N)c1C	i
CC(Oc1cccc(Cl)c1)C(=O)O/N=C(\N)c1cccnc1 (stereo not given)	i
Cc1cccc(C)c1OCc1nnc(SCC(=O)NCCc2ccccc2)o1	1.75µg/mL*
COc1cc(C#N)cc(Br)c1OC(=O)c1ccccc1	6.6%
NC(=O)COc1ccc2c(=O)c(Oc3ccccc3F)coc2c1	i
NC(=O)CS(=O)(=O)c1ccc2ccccc2c1	1.3%
CCOc1ccc(C(=O)Nc2ccc(Cl)cc2C(F)(F)F)cc1[N+](=O)[O-]	i
Cc1ccc(CC(=O)Nc2nnc(C(F)(F)F)s2)cc1	i
CCOC(=O)N1CCN(C(=O)CN(C)S(=O)(=O)c2ccc(OC)c(Cl)c2)CC1	i
O=C(NCc1nc(-c2ccccc2)no1)c1cccs1	i
Cc1cc(Nc2ncnc(N)c2[N+](=O)[O-])ccc1Br	i
COc1ccc2c(=O)c(-c3ccccn3)coc2c1	i
COC(=O)c1ccc(C)c(NC(=S)Nc2cccc3ccccc23)c1	i
Cc1cc(C)c(CSc2nnnn2-c2ccccc2)c(C)c1	1.1%
Cc1ccc(NS(=O)(=O)c2cc(C(=O)NCc3ccncc3)ccc2C)cc1	i
Cc1ccc2[nH]c3c(c2c1)CCCC3NCCCOc1ccc(F)cc1 (stereo not given)	1.7µg/mL*
COCCN1CC(O)=C(c2nc3ccccc3c(=O)[nH]2)C1=N	i

Some of the compounds tested. The share of hits here may be higher or lower than overall.
